# Screens deposited in PubChem by National Center for Advancing Translational Sciences (NCATS).
# TRPV1 PAM – potentiators of human vanilloid receptor 1 (TRPV1). AID 540277. Q8NER1. hit rate 0.02% among 320,000. potentiation, % at 8.33 µM. TRPV1-expressing cells, Fluo-8 calcium influx, capsaicin EC20 potentiation; host cell line not named in the record; control for the full effect not named in the record; active means potentiation above 80%; inconclusive means 30% to 80%; inactive means below 30%; note: 0% is about no effect
# Target sequence (Q8NER1 whole entry, looked up): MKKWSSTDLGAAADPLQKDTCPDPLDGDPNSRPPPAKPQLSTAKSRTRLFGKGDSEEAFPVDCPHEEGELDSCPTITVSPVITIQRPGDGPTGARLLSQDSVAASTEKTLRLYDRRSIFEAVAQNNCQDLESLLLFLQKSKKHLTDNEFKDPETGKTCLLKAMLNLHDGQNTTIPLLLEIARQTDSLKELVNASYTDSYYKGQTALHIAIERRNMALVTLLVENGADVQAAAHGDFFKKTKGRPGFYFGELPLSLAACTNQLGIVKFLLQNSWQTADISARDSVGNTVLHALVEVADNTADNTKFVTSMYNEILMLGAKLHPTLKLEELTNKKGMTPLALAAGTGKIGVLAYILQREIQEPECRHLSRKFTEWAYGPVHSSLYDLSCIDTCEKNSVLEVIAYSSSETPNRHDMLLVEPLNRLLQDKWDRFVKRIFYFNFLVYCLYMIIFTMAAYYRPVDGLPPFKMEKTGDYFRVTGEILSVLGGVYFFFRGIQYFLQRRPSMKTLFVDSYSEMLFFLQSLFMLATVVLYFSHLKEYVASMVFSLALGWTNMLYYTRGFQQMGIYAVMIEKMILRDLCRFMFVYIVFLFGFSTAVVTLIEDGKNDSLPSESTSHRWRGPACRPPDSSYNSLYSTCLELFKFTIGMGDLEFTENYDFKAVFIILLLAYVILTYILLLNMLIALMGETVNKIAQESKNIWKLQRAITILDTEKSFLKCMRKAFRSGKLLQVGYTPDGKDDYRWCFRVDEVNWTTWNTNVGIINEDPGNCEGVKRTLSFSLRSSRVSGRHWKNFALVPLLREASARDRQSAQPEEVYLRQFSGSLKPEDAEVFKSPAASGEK
#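 TRPV1-expressing cells were cultured overnight at 35.5C and loaded with Fluo-8 calcium dye for 40 to 90 min at room temperature. After a 10 s baseline, compound was added and calcium influx was read kinetically for 3 min (ex 480/em 520 nm).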
# Menin MLL FP FL – inhibitors of human menin-MLL interaction, wild-type MLL peptide | Fluorescence polarization, fluorescein-MLL peptide displacement from menin | FP activity change, % at 61.4 µM | 290,000 tested, under 10 active; inconclusive = falling polarisation curve, or a change in total fluorescence; inactive = total fluorescence flat and polarisation flat or rising; no compound was filed as active; the % refers to the polarisation; negative = inhibition;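 note: % of control where 0% means no effect; inhibitors lower the polarisation; unlabelled MLL peptide was the positive control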
# Sfp PPTase inh – blocks B. subtilis Sfp PPTase activity | AID 1490 | Potency, µM, for inactives: max response, negative = inhibition, usual class: inhibitors | Biochemical Sfp PPTase activity, qHTS | hit rate 3.5% among 310,000 | Q9F4F7; active = well fitted inhibition curve with a large enough effect; inconclusive = small, poorly fitted or top-dose-only effect, or another doubt; inactive = no such curve, though single readings can be large or run the other way;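 note: the enzyme is Sfp with the accession as filed and its product quenches rhodamine fluorescence; potency is the fitted concentration of half-maximal effect; 0% = enzyme reaction without inhibitor and -100% = no enzyme wells; top concentration of the series not given in the record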
#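 Step 1, compound plus 15 nM Sfp-PPTase, 15 min, room temperature. Step 2, add rhodamine-CoA (5 uM) and BHQ-2-YbbR (12.5 uM). Step 3, read 525/598 nm fluorescence at 0 and 30 min.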
# ClpP mod – qHTS Assay for Activators of ClpP | purified B. subtilis ClpP, FRET peptide cleavage, 20 min | Potency, µM (series often up to 57.5 µM), inactives show at the highest dose activity change, negative = active | hit rate 1.9% among 340,000; active = well fitted falling curve with a large enough effect; inconclusive = small, poorly fitted or top-dose-only effect; inactive = no such curve, though single readings can be large or run the other way; note: potency is the fitted concentration of half-maximal effect; the source files actives as falling curves though it sought activators and does not explain the sign; nearly all actives have a fitted effect of over 65% in size; many hits overshoot -100%
# Target sequence (P80244 whole entry, looked up): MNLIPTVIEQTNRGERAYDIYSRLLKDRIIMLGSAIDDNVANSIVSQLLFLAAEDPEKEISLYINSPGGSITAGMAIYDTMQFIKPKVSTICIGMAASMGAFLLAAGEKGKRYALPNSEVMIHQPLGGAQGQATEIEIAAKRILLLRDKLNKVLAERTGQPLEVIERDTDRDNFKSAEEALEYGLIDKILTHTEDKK
#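 FRET quenching reversal measured ClpP activation: 10 microg/mL B. subtilis ClpP at pH 8 with the FRET-FV decapeptide, read at 430 nm after 320 nm excitation. The 20-min minus 0-min signal was scaled between DMSO/no-enzyme wells and ADEP (5.8 microM final).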
# gsp antag – gsp mutant antagonism; Potency, µM (titrated, usually from 76.9 µM), for the others: at the top dose activity change, negative = inhibition, hits mostly inhibitors; hit rate 0.4% among 340,000; AID 624288; gsp-mutant cells, cAMP HTRF, 30 min; control for the full effect not named in the record; active = falling curve of any shape with a large fitted effect; inconclusive = falling curve, mostly with a smaller effect; inactive = flat or rising curve; cell line not stated here;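 note: intracellular cAMP measured with PDE inhibitor Ro 20-1724 present during compound exposure; potency is the fitted concentration of half-maximal effect; % is set by controls: 0 for no effect and ±100 for the full control effect; nearly all actives have a fitted effect of over 65% in size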
#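 Cells, 2000/well, grown 16–24 h in DMEM 10% FBS with 0.5 mg/ml G418, then compounds plus […] (300 uM addition stock), 30 min at 37C. cAMP read by HTRF (cAMP-d2 and anti-cAMP antibody-K in lysis buffer) after 30 min RT.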
# gsp agonist – gsp mutant agonism; gsp mutant cells, cAMP HTRF, 30 min; control for the full effect not named in the record; Potency, µM (titrated, usually from 76.9 µM), without a hit: at the highest dose activation (cAMP increase), most hits filed as activators; hit rate 0.13% among 340,000; AID 624287; active = well fitted activation curve with a large enough effect; inconclusive = small, poorly fitted or top-dose-only effect, or another doubt; inactive = no such curve, though single readings can be large or run the other way; cell line not stated here;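 note: phosphodiesterase inhibitor Ro 20-1724 added with compounds to block cAMP breakdown; potency is the fitted concentration of half-maximal effect; nearly all actives have a fitted effect of over 60% in size; about a fifth of the inactives were tested at one dose only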
#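 Cells stably selected in G418 were plated at 2000/well, grown 16-24 hr, then given compounds in DMSO with the PDE inhibitor […] (300 uM solution added) for 30 min at 37C; cAMP was read by HTRF.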
# CtBP-E1A blk – blocks the CtBP interaction with E1A. AlphaScreen GST-E1A/His-CtBP binding, 1536-well; hits give low values; control for the full effect not named in the record. activity change, % (concentration not given with the values). hit rate 0.49% among 340,000; in the data active means activity change below about -65%; inconclusive means about -30% to -65%; inactive means above about -30%; note: % is set by controls: 0 for no effect and ±100 for the full control effect
#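 In 5 uL wells, 23 nL compound meets equimolar GST-E1A and His-CtBP (5X stock 125 nM each) for 2 h, 37 °C. Beads (5X, 50 ug/mL) then 1 h, 37 °C, dark.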
# * = called active by the depositor; ? = inconclusive; nt = no result given; [ ] = another dose, or the depositor's remark.
SMILES,TRPV1 PAM,Menin MLL FP FL,Sfp PPTase inh,ClpP mod,gsp antag,gsp agonist,CtBP-E1A blk
CN(C)CC(C)(C)NS(=O)(=O)c1ccc(Cl)cc1,8,0.1,-4%,-1.1%,6%,1%,-6
CC(C)CNC(=O)c1ccccc1Oc1ccccc1,-5,0.5,14%,-3.0%,3%,19%,3
CCN(CC)P(=O)(Nc1ccc(SC(F)F)cc1)c1ccc(N(C)C)cc1NC(=O)c1ccco1 (stereo not given),-1,7.4,2%,?,?,-14%,-4
COc1ccc(-c2cc(-c3ccc(O)cc3)nc(N)c2C#N)cc1OC,1,-0.1,?,nt,12%,?,-17
CCOc1cc(C2C3=C(CC(C)(C)CC3=O)Nc3n[nH]c(C)c32)ccc1O (stereo not given),3,-2.7,7%,nt,4%,-10%,5
COc1cc(OC)cc(C(=O)NCCCN2CCN(CCCNC(=O)c3cc(OC)cc(OC)c3)CC2)c1,-2,1.9,-9%,-1.1%,10%,3%[15.4 µM],0
Cc1cc(C)c(OCCN2CCOCC2)c(Cl)c1,4,-4.7,-12%,-2.2%,-11%,4%,nt
Cc1nn2cnnc2c(C)c1Cc1ccc(Cl)cc1,5,0.0,-3%,-21%,9%,-51%[inhibitor],nt
C[C@]12CCC(O)CC1=CCC1C2CC[C@]2(C)/C(=N\NC(N)=S)CCC12 (stereo not given in full),10,-4.6,3%,1.0%,10%,2%,-7
CCCCCCn1c(SCCCC)nc2c1c(=O)[nH]c(=O)n2C,4,2.3,13%,2.2%,15%,-32%[inhibitor],-5
CC(NC(=S)NC(=O)c1ccccc1)c1ccccc1 (stereo not given),nt,nt,nt,-1.1%,-11%,2%,nt
Cc1cc(C)c(NC(=O)c2ccc(CN3CCc4ccccc4C3)cc2)c(C)c1,-6,-2.7,1%,-23%,3%,?,-2
COc1cc2c(c(OC)c1OC)-c1c(cc3c(c1O)OCO3)C[C@@H](C)[C@@H](C)C2,-4,3.8,6%,2.1%,-4%,3%,-8
COc1ccccc1CCc1nnc(CCC(=O)NC(C)Cc2cccs2)o1 (stereo not given),5,-2.4,-3%,nt,-3%,13%[15.4 µM],3
O=C(COc1ccc(Cl)cc1)Nc1ccc(Cl)cn1,-1,0.3,17%,-0.8%,-2%,-15%,9
CCc1nnc(NS(=O)(=O)c2ccc(NC(=O)c3cccc(OC(F)(F)C(F)F)c3)cc2)s1,nt,nt,nt,nt,-25%,-4%[15.4 µM],?
Cc1cccc2c(CC(=O)O)noc12,0,1.6,7%,-21%,3%,46%,14
CC(C)CC(=O)N1CCN(Cc2ccc(Cl)cc2)CC1,-12,0.2,-20%,-0.1%,9%,2%[15.4 µM],7
Cc1ccc(S(=O)(=O)N2CCOCC2)cc1C(=O)Nc1ccc(N2CCCCCC2)cc1,3,nt,nt,-2.0%,0%,8%[15.4 µM],?
Cc1cc(C(=O)NC2CCCCCCC2)ccc1[N+](=O)[O-],nt,nt,nt,nt,1%,?,-5
CCOC(=O)CCCc1ccc(/C(C)=N/NC(N)=S)cc1,-3,1.9,56µM*,0.5%,1%,-4%[15.4 µM],-2
CCCN(CCC)C(=O)CSc1nc2n[nH]c(C)c2c(=N)n1-c1ccc(OC)cc1,-5,11,6%,-1.7%,-9%[15.4 µM],-11%,10
CCOc1ccc2[nH]c3c(=O)n(CCC4=CCCCC4)cnc3c2c1,7,0.0,?,nt,10%,-17%[15.4 µM],8
O=C(O)C1(C(=O)O)CCC2(CCCCC2)CC1,nt,nt,nt,1.4%,nt,16%,2
O=C(Nc1ccc(C(F)(F)F)cc1)c1cc(S(=O)(=O)NCC2COc3ccccc3O2)ccc1F (stereo not given),-6,7.6,23%,-4.9%,0%,-4%[15.4 µM],-7
COC(=O)[C@]1(Cc2ccccc2)N[C@H](CN(C)S(=O)(=O)c2ccc(OC(F)(F)F)cc2)[C@@H]2C(=O)N(C)C(=O)[C@@H]21,nt,nt,nt,2.5%,-11%,nt,2
COc1ccccc1NC(=O)COC(=O)c1cnccn1,-8,4.7,8%,2.6%,6%,-31%[inhibitor],3
CCOC(=O)c1cnc2ccccc2c1Nc1ccc(C(=O)O)cc1,6,5.5,19%,nt,-28%,?,5
COc1ccc(/C=C/C(=O)Nc2ccccc2C(N)=O)cc1S(=O)(=O)N1CCOCC1,-19,nt,nt,nt,1%,-10%[15.4 µM],?
CNc1ccc(Br)cc(C(=O)/C=C/c2ccc(Cl)cc2Cl)c1=O,24,?,14µM*,nt,nt,3%[15.4 µM],0
C[C@@H]1CNC(=O)c2c(C(=O)NCc3ccc(CNC(=O)OC(C)(C)C)cc3)ncn21,nt,nt,nt,0.9%,nt,-46%[inhibitor],-6
CCCNC(=O)c1nc(C)n(-c2cc(Cl)cc(Cl)c2)n1,5,1.5,16%,nt,-2%,-1%[15.4 µM],6
Cc1noc(C)c1COC(=O)c1ccc2c(c1)OCCO2,-5,4.0,-1%,-3.1%,-2%,?,2
O=C(NN=Cc1c(F)cccc1F)c1ccccc1NS(=O)(=O)c1cccs1,nt,nt,nt,-1.3%,-24%,3%,-2
COc1ccccc1NC(=O)C1CCN(S(=O)(=O)c2ccc3c(c2)NC(=O)C(C)S3)CC1 (stereo not given),9,nt,2%,3.2%,-24%,-29%,nt
CCOC(=O)c1sc(NC(=O)CSc2ncccn2)c(C#N)c1C,9,-1.6,15%,-3.4%,-11%,-50%[inhibitor],-6
O=C(NCCCSc1ccccc1)c1cnc(Cl)c(Cl)c1,-5,nt,16%,nt,-15%,-2%[15.4 µM],-7
O=C1CC(C(=O)N2CCCc3ccccc32)CN1c1ccc(F)cc1 (stereo not given),3,2.6,9%,nt,-21%,14%,3
O=C1C(=O)N(CNc2cccnc2)c2ccccc21,6,0.4,2%,3.2%,1%,-26%,1
CC1=C(C(=O)N2CCCC(CCC(=O)NCc3ccc(F)c(F)c3)C2)OCCO1 (stereo not given),-7,1.0,10%,0.8%,-2%,7%,9
COc1cc(C2c3c(-c4ccccc4)n[nH]c3C(=O)N2c2ccc(C(=O)O)cc2)ccc1O (stereo not given),-13,6.0,-12%,0.7%,3%,14%,0
O=C1c2ccccc2C(=O)c2c1cccc2N1CCN(CCO)CC1,-4,-27,9%,-0.3%,-8%,11%,-26
CCCCOc1ccc(CNC(=S)N/N=C/c2ccc(OC)c(OC)c2)cc1,14,3.7,14%,?,-1%,-13%,-12
CC(C)OC(=O)CC(=O)c1sc2nc3c(cc2c1N)CN(C)CC3,5,?,45µM*,42%,2%,14%,1
CCOc1ccc(-n2c(SC)nc3c(c2=O)SCC3)cc1,-3,-0.8,-6%,-2.2%,-1%,-50%[inhibitor],-8

# Complete entries from above.
# Listed for `O=C(Nc1ccc(C(F)(F)F)cc1)c1cc(S(=O)(=O)NCC2COc3ccccc3O2)ccc1F` (stereo not given) : TRPV1 PAM: -6; Menin MLL FP FL: 7.6; Sfp PPTase inh: 23%; ClpP mod: -4.9%; gsp antag: 0%; gsp agonist: -4%[15.4 µM]; CtBP-E1A blk: -7
# Listed for `CC1=C(C(=O)N2CCCC(CCC(=O)NCc3ccc(F)c(F)c3)C2)OCCO1` (stereo not given) : TRPV1 PAM: -7; Menin MLL FP FL: 1.0; Sfp PPTase inh: 10%; ClpP mod: 0.8%; gsp antag: -2%; gsp agonist: 7%; CtBP-E1A blk: 9

# (cont.)
SMILES,TRPV1 PAM,Menin MLL FP FL,Sfp PPTase inh,ClpP mod,gsp antag,gsp agonist,CtBP-E1A blk
CCc1cc(C(=O)OC)c(NC(=O)CC2NCCNC2=O)s1 (stereo not given),6,3.3,1%,-16%,10%,12%,-2
CCOc1ccc(S(=O)(=O)NCCC(=O)NCc2cccnc2)cc1,-10,nt,nt,1.3%,13%,-17%,13
CCSc1nnc(NC(=O)CSc2nnc(Cc3cccn3C)n2CCc2ccccc2)s1,11,-3.6,-10%,1.3%,-19%,-24%,-25
Cc1ccc(CC(=O)O/N=C(\N)c2ccncc2)cc1,-1,nt,19%,-3.5%,-1%,?,10
COc1ccc(C(C)=O)cc1COc1cccc2c1OC(C)(C)C2,?,nt,15%,1.4%,2%,-2%[15.4 µM],-4
COCC(O)Cn1ccnc1[N+](=O)[O-] (stereo not given),nt,nt,nt,0.7%,nt,9%,-1
COc1ccc(F)cc1S(=O)(=O)Nc1cc2c3c(c1)CCN3C(=O)CC2,-6,nt,nt,1.3%,4%,-12%[15.4 µM],-22
COCCSc1ccccc1C(=O)N1CCc2ccccc21,7,-0.8,6%,1.0%,3%,-34%[15.4 µM],15
Cc1cccc(OCc2nnc(SCC(=O)N3CCc4ccccc43)n2C)c1,?,-0.7,6%,1.3%,-24%,4%,3
COc1cccc(Nc2nc(N)c([N+](=O)[O-])c(N3CCOCC3)n2)c1,-3,-1.3,2%,1.0%,10%,19%,nt
COc1cccc(CN2CCNC(=O)C2CC(=O)NCCCN2CCCC2=O)c1 (stereo not given),8,nt,-7%,-7.7%,-14%,0%,-13
CN(Cc1ccco1)C(=O)C(Cc1ccccc1)NS(=O)(=O)c1ccc2c(c1)CCC(=O)N2 (stereo not given),21,-1.8,-22%,-0.9%,6%,?,6
O=C(O)COC(=O)C1C(c2ccccc2)C(C(=O)O)C1c1ccccc1 (stereo not given),-4,3.0,-3%,nt,10%,-21%,-21
CC12C=CC3(CN(Cc4ccccc4)C(=O)C3C1C(=O)NCc1ccco1)O2 (stereo not given),13,4.6,-6%,1.2%,2%,22%,38
Cc1ccc(-n2c(SCC(N)=O)nc3c(oc4ccccc43)c2=O)cc1,25,-11,4%,-2.8%,-1%,-9%,-10
CC(=O)Nc1ccc(NS(=O)(=O)c2cc(-c3cnc(C4CC4)o3)ccc2C)cc1,11,nt,-8%,-0.7%,-13%,8%,nt
Cc1ccnc(NC(=O)CCC2CCCCC2)c1,0,3.1,12%,-0.5%,-8%,-47%[inhibitor],3
O=C(c1cccc(Cl)c1)C1CCCN(Cc2ccc(N3CCNC3=O)cc2)C1 (stereo not given),-7,1.0,24%,nt,7%,?,-12
NC(=O)[C@@H]1[C@@H]2C(=O)N(c3ccc(F)cc3)C(=O)[C@@H]2[C@H]2C=Cc3ccccc3N21,5,?,56µM*,-1.9%,-11%,3%[15.4 µM],-3
